# Cruzain Triton – qHTS Assay for Promiscuous and Specific Inhibitors of Cruzain (with detergent). Cruzipain (Trypanosoma cruzi), P25779. purified cruzain, Z-FR-AMC fluorescence, 0.01% Triton. Potency, µM, inactives show max response, negative = inhibition, hits mostly inhibitors. actives 0.43% (n = 200,000). AID 1478, 2009; active = well fitted curve in the direction sought with a large enough effect; inconclusive = small, poorly fitted or top-dose-only effect, or another doubt; inactive = no such curve, though single readings can be large; an effect the other way counts as inactive or inconclusive;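 note: plate controls were neutral wells for no effect and buffer without enzyme for full effect; nearly all actives have a fitted effect of over 40% in size; top concentration of the series not given in the record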
# Target sequence (P25779 123-467 limits assumed): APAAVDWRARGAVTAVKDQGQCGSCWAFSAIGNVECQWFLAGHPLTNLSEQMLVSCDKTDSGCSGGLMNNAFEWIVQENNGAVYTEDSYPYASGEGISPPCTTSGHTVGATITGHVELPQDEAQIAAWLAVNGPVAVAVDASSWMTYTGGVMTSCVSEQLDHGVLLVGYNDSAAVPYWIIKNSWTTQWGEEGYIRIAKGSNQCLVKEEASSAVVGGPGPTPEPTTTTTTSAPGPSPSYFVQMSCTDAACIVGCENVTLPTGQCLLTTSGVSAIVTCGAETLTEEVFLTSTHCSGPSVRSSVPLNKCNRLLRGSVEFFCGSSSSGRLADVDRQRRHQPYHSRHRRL
#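 Purified cruzain (1.5 nM final) was preincubated with compounds for 15 min at room temperature in 100 mM sodium acetate pH 5.5, 5 mM DTT, 0.01% Triton X-100. Reaction started with 2 uM Z-FR-AMC; AMC fluorescence change over 60 s gave activity.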
# RE007 growth inh – qHTS Assay for Inhibitors of the HIV-1 protein Vpr; Potency, µM (highest dose often 92.2 µM), for inactives: at the highest dose activity change, negative = less growth; S. pombe RE007 Vpr strain, BacTiter-Glo ATP luminescence, 24 h; control for the full effect not named in the record; actives 0.21% (n = 360,000); active = well fitted falling curve with a large enough effect; inconclusive = small, poorly fitted or top-dose-only effect; inactive = no such curve, though single readings can be large or run the other way;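 note: % is set by controls: 0 for no effect and ±100 for the full control effect; nearly all actives have a fitted effect of over 50% in size; the assay follows cell death caused by Vpr and the record does not say whether a fall means rescue or toxicity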
#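 Fission yeast strain RE007, carrying one chromosomally integrated HIV-1 vpr copy, was seeded at OD 0.01 in PMG+AL medium with 23 nL pinned compound. After 24 h at 30 °C and 99% humidity, viability was read by BacTiter-Glo luminescence.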
# 2A StopGo – High Throughput Screening for Foot and Mouth Disease Virus Antivirals | Potency, µM (titrated, usually from 57.9 µM), without a hit: at the top dose signal change, negative = less light | actives 1.2% (n = 410,000) | human cells with a luciferase reporter of 2A StopGo recoding; control for the full effect not named in the record; active = well fitted falling curve with a large enough effect; inconclusive = small, poorly fitted or top-dose-only effect; inactive = no such curve, though single readings can be large or run the other way; tested in HEK293T cells; note: % is set by controls: 0 for no effect and ±100 for the full control effect; nearly all actives have a fitted effect of over 45% in size; luciferase light after 4 h
# NS1 function inh – qHTS Assay for Inhibitors of Influenza NS1 Protein Function; S. cerevisiae slowed by influenza A NS1, growth recovery by OD600; Potency, µM (highest dose often 46.1 µM), for the others: top-dose activity, positive = more growth; actives 0.4% (n = 270,000); AID 2326, 2010; note: actives are rising curves; nearly all actives have a fitted effect of over 50% in size
#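 A cell-based growth assay was used: compounds that relieve NS1-induced slow growth of budding yeast raise OD600. Assay medium was yeast nitrogen base with ammonium sulphate and -URA supplement, pH 6.0, with 2% galactose.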
# LASV entry inh – qHTS for Inhibitors of binding or entry into cells for Lassa Virus | actives 1.2% (n = 300,000) | Lassa virus pseudotype entry inhibition, cell reporter; control for the full effect not named in the record | Potency, µM (highest dose often 37.9 µM), without a hit: at the top dose activity change, negative = inhibition, actives largely listed as inhibitors; active means well fitted inhibition curve with a large enough effect; inconclusive means small, poorly fitted or top-dose-only effect, or effect the other way; inactive means flat fitted curve, though single readings scatter; tested in HEK293 cells; note: % is set by controls: 0 for no effect and ±100 for the full control effect; nearly all actives have a fitted effect of over 50% in size; luciferase read-out
# SARS PLP yeast – qHTS of Yeast-based Assay for SARS-CoV PLP | Potency, µM (titrated, usually from 32.9 µM), for inactives: top-dose activity, positive = growth rescue | actives 0.19% (n = 330,000) | S. cerevisiae expressing SARS-CoV PLpro, growth rescue; control for the full effect not named in the record | AID 485353, 2010; note: 0% is about no effect; nearly all actives have a fitted effect of over 55% in size; growth read by luminescence after 48 h
# Cruzain inh noDet – qHTS Assay for Promiscuous and Specific Inhibitors of Cruzain (without detergent) | Cruzipain (Trypanosoma cruzi), P25779 | purified cruzain, Z-FR-AMC fluorescence, no detergent | Potency, µM, for inactives: max response, negative = inhibition, most hits filed as inhibitors | actives 2.3% (n = 200,000) | AID 1476, 2009; active = well fitted curve in the direction sought with a large enough effect; inconclusive = small, poorly fitted or top-dose-only effect, or another doubt; inactive = no such curve, though single readings can be large; an effect the other way counts as inactive or inconclusive;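 note: plate controls were enzyme without inhibitor for no effect and buffer without enzyme for full effect; nearly all actives have a fitted effect of over 40% in size; top concentration of the series not given in the record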
#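 Purified cruzain at 1.5 nM, pre-incubated 15 min with compound at room temperature in 100 mM sodium acetate pH 5.5, 5 mM DTT, 0.00005% Triton X-100. Reaction started with 2 uM Z-FR-AMC; AMC fluorescence increase over 60 s gives rate.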
# MARV entry inh – qHTS for inhibitors of binding or entry into cells for Marburg Virus; Marburg virus pseudotyped entry inhibition, cell reporter; control for the full effect not named in the record; about a third of the inactives were read at about 46 µM; Potency, µM (top dose mostly 37.8 µM), inactives show at the top dose activity change, negative = inhibition, usual class: inhibitors; actives 1.8% (n = 300,000); active = well fitted inhibition curve with a large enough effect; inconclusive = small, poorly fitted or top-dose-only effect, or effect the other way; inactive = flat fitted curve, though single readings scatter; tested in HEK293 cells; about a fifth of its hits are not listed in these tables; note: % is set by controls: 0 for no effect and ±100 for the full control effect; luciferase read-out
# * = called active by the depositor; ? = inconclusive; · = not tested or not shown; & = joins results of further samples; [ ] = remark or other dose. Unless noted, calls come from the whole dose curve; as a rule, active means well fitted rising curve with a large enough effect; inconclusive means small, poorly fitted or top-dose-only effect; inactive means no such curve, though single readings can be large or run the other way. Potency is the fitted concentration of half-maximal effect.
SMILES,Cruzain Triton,RE007 growth inh,2A StopGo,NS1 function inh,LASV entry inh,SARS PLP yeast,Cruzain inh noDet,MARV entry inh
Cc1ccc(C(C(=O)NCC2CCCO2)N(C(=O)c2snc(C(N)=O)c2N)c2ccccc2F)o1 (stereo not drawn),·,-21.8%,3.2%,-12.3%,-21.1%,0.8%,·,?
COc1ccc(C(=O)NCC(c2ccc(N(C)C)cc2)N2CCc3ccccc32)cc1OC (stereo not drawn),-8.4%,·,-17.5%,·,-2.4%[46.1 µM],·,?,·
Cc1ccc(CSCC(=O)N(CCC(C)C)c2c(N)n(Cc3ccccc3)c(=O)[nH]c2=O)cc1,·,-7.3%,3.3%,·,?,1.8%,·,?
CCCCOc1c(Br)cc(/C=N/O)cc1OCC,-15.5%,?,-26.8%,0.8%,·,-16.4%,12.4%,·
CCC(=O)c1ccc(OCC(=O)O)c(OC)c1,·,-7.9%,-2.1%,7.9%,·,0.6%,·,·
O=C(CN1CCOCC1)N1CCOCC1,·,4.1%,16.7%,·,9.0%[46.1 µM],·,·,-3.2%[46.1 µM]
CC(Oc1ccc(Cl)cc1)c1ccnn1S(=O)(=O)c1ccccc1 (stereo not drawn),-2.4%,-1.9%,?,-0.8%,-25.5%,-20.2%,3.1%,-21.5%[46.1 µM]
CSc1ccccc1C(=O)Nc1nc2ccccc2[nH]1,·,3.6%,50.5%[activator],·,?,-1.6%,·,?
CN1CCN(c2ccc(N)cc2Cl)CC1,·,-25.1%,-15.5%,·,1.0%,-0.6%,·,?
OCCN(Cc1ccccc1)Cc1ccc(Cl)cc1Cl,1.2%,-1.5%,·,-32.2%,?,-10.1%,-3.5%,-3.6%
CCN(CC)S(=O)(=O)c1ccc(F)cc1,3.4%,9.9%,-23.9%,6.8%,-0.1%,7.7%,-5.2%,8.7%
O=C(NNC(=O)c1cc(-c2cccnc2)nc2ccccc12)Nc1ccc(Cl)cc1,·,-17.1%,?,·,?,-9.3%,·,?
CCCOc1ccc(C(=O)NNC(=O)CCNC(=O)c2ccccc2Cl)cc1OC,·,2.6%,0.8%,·,10.0%,3.4%,·,-2.0%
Cc1cccc(-n2c(O)c(C=NCCN3CCNCC3)c(=O)[nH]c2=S)c1,·,-1.8%,-1.2%,5.6%,8.8%,-1.9%,·,19.4%
CNC(=O)c1sc(-c2ccccc2)nc1C,4.4%,-9.3%,30.3%[activator],-2.5%,9.4%,-3.4%,0.5%,?
COC(=O)c1sccc1NC(=O)C1CCCCC1C(=O)O (stereo not drawn),·,31.7%,-13.4%,-2.2%,6.0%,0.0%,·,4.1%
CCN1CCN(C(=O)c2ccc3c(c2)N(Cc2cccc(F)c2)C(=O)c2ccccc2S3)CC1,-0.4%,·,-3.8%,·,-13.2%[46.1 µM],·,-1.4%,·
COC(=O)CNC(=O)C12CC3CC(C1)CC(c1ccc(C)cc1)(C3)C2,·,-1.8%,-10.8%,-4.6%,21.8%[46.1 µM],2.9%,·,-6.2%[46.1 µM]
CCC(C)[C@H](NC(=O)NCCC1=CCCCC1)C(=O)OC (stereo partly drawn),·,-4.4%,-4.6%,0.7%,-2.1%[46.1 µM],-0.1%,·,5.3%[46.1 µM]
Cc1ccccc1Cn1c(=O)n(Cc2ccco2)c(=O)c2oc3ccccc3c21,0.0%,·,-12.8%,·,9.3%[46.1 µM],·,-7.0%,·
COc1ccc(N2C(=O)NC(NC(=O)C(C)(C)C)(C(F)(F)F)C2=O)cc1 (stereo not drawn),·,13.3%,-9.7%,1.8%,·,-1.0%,·,·
O=[N+]([O-])c1ncccc1Oc1nc(-c2cccnc2)nc2ccccc12,·,-13.8%,-14.0%,·,0.8%,0.9%,·,?
CCOC(=O)C1=C(CN2CCN(C(=O)c3ccco3)CC2)NC(=O)NC1c1ccc(OC(C)C)cc1 (stereo not drawn),·,-5.7%,-26.1%,-0.6%,·,26.4%,·,·
NS(=O)(=O)c1ccc(NC(=O)c2ccc(S(=O)(=O)N3CCOCC3)o2)cc1,·,5.6%,-6.9%,6.6%,·,-1.4%,·,·
CCCNC(=O)c1ccc(SC)cc1OC,0.9%,-17.1%,30.7%[activator],-19.9%,?,-5.3%,-6.6%,1.4%
CC[C@@H](C)[C@H](NC(=O)OC(C)(C)C)c1nnc(S(=O)(=O)Cc2cc(C)ccc2C)o1,8.91µM*,?,-27.9%,-184.5%,10µM*,-23.5%,15.8µM*,?
COc1ccc[nH]c1=O,1.8%,-14.5%,·,7.9%,-1.3%,-1.0%,-1.9%,0.1%&0.1%
CN(C)CCN1C(=O)C(O)=C(C(=O)c2cc3ccccc3o2)C1c1cccc(Br)c1 (stereo not drawn),-3.7%,17.6%,-5.6%,-2.8%,15.6%,-2.7%,?,3.0%
CCOc1cc(C2C(C#N)=C(N)Oc3n[nH]c(-c4ccncc4)c32)cc([N+](=O)[O-])c1O (stereo not drawn),·,-1.5%,-13.6%,·,-2.5%[46.1 µM],3.1%,·,1.3%[46.1 µM]
CCCC(=O)N(CCN1CCOCC1)c1nc2c(OC)ccc(OC)c2s1,·,14.9%,-9.8%,-6.1%,·,-1.3%,·,·
C=CCn1c(O)c(C(CC)=NCCC2=CCCCC2)c(=O)[nH]c1=O,-3.7%,7.7%[3.69 µM],?,-7.4%,-43.5%,-6.1%,-3.9%,0.0%
CCNC(=O)CCSc1nnc(-c2ccc(O)cc2)o1,-0.2%,·,5.1%,·,2.6%[46.1 µM],·,12.6%,9.5%[46.1 µM]
CC(C)c1ccc(S(=O)(=O)N2CCN(CCC(=O)Nc3ccc(N(C)C)cc3)CC2)cc1,-2.6%,3.0%,?,-1.5%,-13.5%,0.9%,10.3%,8.1%[46.1 µM]
CC12CCC=CC1=C(C=O)C1C2CCC2(C)C(O)CCC12 (stereo not drawn),·,13.7%,?,·,?,·,·,?
CCc1ccc(NC(=O)CNCc2ccc(OC)c(OC)c2)cc1,·,5.6%,-5.8%,-0.4%,?,3.3%,·,-17.3%[46.1 µM]
Cc1cccc(-n2ccnc2SCC(=O)O)c1C,·,1.9%,2.4%,-0.9%,20.7%,1.8%,·,25.5%
CC(C)Sc1ncnc2[nH]ncc12,·,12.3%,0.0%,·,15.3%,·,·,9.7%
CCN(CC)c1ccc(N=Cc2c(O)n(CCc3ccc(OC)c(OC)c3)c(=O)[nH]c2=O)cc1,-5.5%,21.4%,6.31µM*,4.6%,?,8.1%,?,2.82µM*
Cc1ccc(NCc2nnc(SCC(=O)c3ccc4c(c3)OCCO4)o2)c(C)c1,-0.2%,10.9%,·,-6.1%,-2.0%,2.7%,7.9%,-0.1%
Cc1ccc(-c2noc(C3CCCN(C(=O)c4cccc(Cl)c4)C3)n2)o1 (stereo not drawn),·,-10.1%,25.9%,-6.0%,?,-1.8%,·,?
C=CCN(c1ccccc1OC)S(=O)(=O)c1cccc(C(=O)OCC(=O)c2c[nH]c3ccccc23)c1,-2.8%,-2.8%,?,-26.6%,9.2µM*,11.9%,-26.9%,?
COc1cc2c(cc1OC)CN(C(=O)C(C)(C)C)CC2,4.5%,-16.7%,·,1.1%,-3.1%,-1.1%,-4.3%,15.5%
O=C(CCS(=O)(=O)c1ccccc1)Nc1nc2cc3c(cc2s1)OCO3,·,21.8%,7.0%,-8.3%,-10.8%[46.1 µM],0.0%,·,-2.7%[46.1 µM]
COc1cc(/C=N/N2CCN(c3ccccc3OC)CC2)ccc1OC(C)=O,·,-3.3%,37.8%[activator],2.7%,?,-2.4%,·,11.7%
O=C(Nc1ccc(S(=O)(=O)N2CCCC2)cc1)C1CC(=O)N(c2ccccc2)C1 (stereo not drawn),·,4.6%,-2.6%,·,-24.2%,-0.2%,·,26.8%[46.1 µM]

# Of the compounds above, 2 have two or more sulfur atoms:
SMILES,Cruzain Triton,RE007 growth inh,2A StopGo,NS1 function inh,LASV entry inh,SARS PLP yeast,Cruzain inh noDet,MARV entry inh
NS(=O)(=O)c1ccc(NC(=O)c2ccc(S(=O)(=O)N3CCOCC3)o2)cc1,·,5.6%,-6.9%,6.6%,·,-1.4%,·,·
O=C(CCS(=O)(=O)c1ccccc1)Nc1nc2cc3c(cc2s1)OCO3,·,21.8%,7.0%,-8.3%,-10.8%[46.1 µM],0.0%,·,-2.7%[46.1 µM]

# Next part
SMILES,Cruzain Triton,RE007 growth inh,2A StopGo,NS1 function inh,LASV entry inh,SARS PLP yeast,Cruzain inh noDet,MARV entry inh
COc1cc(NC(=O)CN2CCN(c3ccccc3O)CC2)c(C)cc1[N+](=O)[O-],-2.3%,5.3%,-22.8%,-4.3%,-18.3%,-7.0%,?,-3.5%
Cc1c(/C=N/NC(=O)c2sc3ccccc3c2Cl)cnn1C,-1.6%,1.9%,47.7%[activator],-85.6%,-22.1%,-8.6%,2.9%,-32.1%
Cc1nn(C)c(C(=O)Sc2ccccc2)c1[N+](=O)[O-],·,?,-23.2%,-60.8%,-0.2%,-6.0%,·,14.4%[46.1 µM]
COc1ccc2[nH]c(=O)c(-c3nnn(-c4ccccc4)n3)cc2c1,·,13.6%,20.9%,-2.3%,·,-0.3%,·,·

# One compound at a time, as listed above. Order of values: Cruzain Triton, RE007 growth inh, 2A StopGo, NS1 function inh, LASV entry inh, SARS PLP yeast, Cruzain inh noDet, MARV entry inh
# COc1cc(NC(=O)CN2CCN(c3ccccc3O)CC2)c(C)cc1[N+](=O)[O-] in the list: -2.3%, 5.3%, -22.8%, -4.3%, -18.3%, -7.0%, ?, -3.5%
# COc1ccc2[nH]c(=O)c(-c3nnn(-c4ccccc4)n3)cc2c1 in the list: ·, 13.6%, 20.9%, -2.3%, ·, -0.3%, ·, ·
# Cc1c(/C=N/NC(=O)c2sc3ccccc3c2Cl)cnn1C in the list: -1.6%, 1.9%, 47.7%[activator], -85.6%, -22.1%, -8.6%, 2.9%, -32.1%

# Screening results as filed in PubChem.
